Screens from PubChem BioAssay.
FGF22 binding – shifts melting point of recombinant human FGF22. Q9HCT0. recombinant FGF22 thermal shift, SYPRO orange fluorescence; percent of sucrose octasulfate shift, DMSO zero. calls only at 9.99 µM. actives 1.5% (n = 340,000);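 active = melting point raised past a set limit in the mean and every replicate; three in four hits are not shown here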
Target sequence (Q9HCT0 whole entry, looked up): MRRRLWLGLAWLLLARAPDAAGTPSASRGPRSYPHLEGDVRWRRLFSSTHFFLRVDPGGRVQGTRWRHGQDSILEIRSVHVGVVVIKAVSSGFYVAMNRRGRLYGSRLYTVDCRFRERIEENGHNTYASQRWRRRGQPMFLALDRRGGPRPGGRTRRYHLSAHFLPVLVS
LANA-H2A inh – blocks KSHV LANA binding to histone H2A/H2B; cell-free LANA-H2A/H2B peptide, fluorescence polarization; inhibition, % (test concentration not listed); actives 0.6% (n = 320,000); AID 2629; in the data active = inhibition mostly above about 10%, no sharp cut-off; inactive = mostly below about 6.7%;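 note: stock transfer was 7.5 nL into about 10 µL; 0% = median of vehicle wells and 100% = median of positive control wells; one replicate is shown; the record names a cut of 25% in any replicate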
Beta2AR agonist – agonists of human beta-2 adrenergic receptor inducing internalization | P07550 | Am2.2-beta2AR cells, FAP receptor internalization, flow cytometry; reference of the scale not given here | response, % (test concentration not listed) | actives 0.43% (n = 340,000);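 active = response above a set limit, near 3 SD of response in nonfluorescent compounds, cut at about 42% in these data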;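 note: stock transfer was 100 nL into about 11 µL; a reference agonist was the positive control; negative values mostly stem from fluorescent compounds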
HNF4A DNA FP – change in binding of human HNF4 alpha to DNA. activity change, % at 10 µM. HNF4a-FITC DNA binding, fluorescence polarization, 1 h. actives 0.3% (n = 360,000). P41235; in the data active = activity change above about 30%, passing the limit was not always enough;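 note: controls were the assay level and a saturating level of protein; the project sought stronger binding though the title names inhibitors; some compounds called inactive have numbers as strong as hits; positive values seem to mean higher polarization but the record does not say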
Target sequence (P41235 whole entry, looked up): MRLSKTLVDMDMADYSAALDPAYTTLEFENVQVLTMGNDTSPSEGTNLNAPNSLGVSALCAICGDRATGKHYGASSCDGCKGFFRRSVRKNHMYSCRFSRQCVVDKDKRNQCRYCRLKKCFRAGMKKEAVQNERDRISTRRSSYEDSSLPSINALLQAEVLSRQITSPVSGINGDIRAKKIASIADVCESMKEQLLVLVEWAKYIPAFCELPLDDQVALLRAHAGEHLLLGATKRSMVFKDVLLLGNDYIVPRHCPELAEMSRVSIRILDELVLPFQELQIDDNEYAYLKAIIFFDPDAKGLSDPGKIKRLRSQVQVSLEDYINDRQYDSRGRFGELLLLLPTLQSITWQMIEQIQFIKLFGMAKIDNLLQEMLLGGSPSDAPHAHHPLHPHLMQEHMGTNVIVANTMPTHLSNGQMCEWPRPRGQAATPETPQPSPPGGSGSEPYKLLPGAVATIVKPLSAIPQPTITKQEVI
ALR H2O2 inh – human ALR oxidase inhibition via reduced H2O2. P55789. purified ALR, DTT oxidation, H2O2 HRP-luminol luminescence. inhibition, % (no concentration beside the values). actives 3.8% (n = 290,000). AID 485317;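 active = mean and each replicate at 75% or more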;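 note: stock transfer was 7.5 nL into about 7.5 µL; 0% = neutral wells and 100% = wells with inactivated enzyme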
Target sequence (P55789 whole entry, looked up): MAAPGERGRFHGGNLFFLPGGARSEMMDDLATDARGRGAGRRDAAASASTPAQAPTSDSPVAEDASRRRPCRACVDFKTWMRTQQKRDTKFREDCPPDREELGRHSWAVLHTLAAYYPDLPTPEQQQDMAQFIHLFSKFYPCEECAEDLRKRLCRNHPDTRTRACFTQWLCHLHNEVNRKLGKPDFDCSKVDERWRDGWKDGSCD
UCH37 DUB inh – human UCH37 deubiquitinating enzyme inhibition | Q9Y5K5 | purified proteasome/UCH37, Ub-AMC cleavage fluorescence | inhibition, % (no concentration beside the values) | actives 0.33% (n = 330,000) | AID 588478;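 active = mean of two replicates above 20%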;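 note: 0% = compound-free wells with enzyme and 100% = wells lacking proteasome; stock transfer was 100 nL into about 20 µL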
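Schedule: 30 min plus 25 min, room temperature / Material: human UCH37 within purified proteasomes / Technique: AMC fluorescence intensity at 355/460 nm / Buffer or medium: pH 7.4 Tris-HCl (50 mM) with ovalbumin, ATP-MgCl2, DTT / Controls: wells without proteasome as full block, compound-free enzyme plus substrate as uninhibited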
E coli growth – inhibitors of Escherichia coli growth; OD600, 23 h; active compounds read low; OD600 absorbance (test concentration not listed); actives 0.21% (n = 330,000);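 active = OD600 absorbance below the run mean of sample wells minus 3.6 SD, in any replicate, cut at about 0.56 in these data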;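 note: stock transfer was 300 nL into about 60 µL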
Numbers without * were called inactive; i = inactive; x = not tested or not shown; + = active, no number. The list is partial (hit frequency here may not be typical).

FGF22 binding,LANA-H2A inh,Beta2AR agonist,HNF4A DNA FP,ALR H2O2 inh,UCH37 DUB inh,E coli growth,Compound
i,0.1,-8.2,4.2,1.9,2.3,x,C[C@@H]1COC(=O)[C@H](CC(=O)OC(C)(C)C)C/C=C\C[C@H](CC(=O)NCCO)C(=O)N1
i,-1.0,8.4,-1.1,-8.9,1.2,0.706,Cc1cc(C)c2cc(C(=O)Nc3ccccc3)[nH]c2c1
i,2.7,-17.3,-3.2,x,3.1,0.683,COc1ccc(C(=O)NCC2CCCO2)cc1OC (stereo unspecified)
i,-5.3,-1.7,2.2,-2.0,2.0,0.692,Cc1ccccc1C(=O)NC(=S)NCCC1=CCCCC1
i,-1.7,4.7,1.1,-1.8,-91.0,0.712,Cc1ccn2c(=O)c(C(=O)NCCCN3CCCC3=O)c(O)nc2c1
x,2.5,16.0,-0.7,-5.2,-37.1,0.754,COC(=O)c1ccc(NC(=O)c2sc3nc(-c4ccccc4)cn3c2C)cc1
i,x,1.2,0.9,x,x,x,CCCCCC1C(=O)C[C@@H]2CCN3C(=O)CCC[C@H]1[C@H]23 (stereo partly specified)
x,0.7,-1.1,2.0,-5.4,0.2,0.694,CC1(C)CC2(CCO1)OC(=O)CC2C(=O)NCc1ccccc1 (stereo unspecified)
i,1.0,-3.9,0.6,-5.4,1.3,0.671,O=C(NCCOC(=O)c1ccc(F)cc1)c1ccc(F)cc1
i,-4.0,-10.7,4.2,-14.6,2.9,0.713,O=C(Nc1cnn(Cc2ccc(Cl)cc2Cl)c1)c1noc2c1CCCC2
x,0.3,9.7,0.9,-0.4,17.8,0.721,N#C/C(=C/c1ccc(CNS(=O)(=O)c2ccccc2)o1)C(N)=O
i,0.9,5.8,-1.5,-4.1,2.4,0.68,O=c1cc(-c2ccc(C(F)(F)F)cc2)oc2ccccc12
i,2.8,2.1,3.6,-3.8,1.9,0.668,CC(C)CNS(=O)(=O)c1cc(C(=O)OCC(=O)N2CCOCC2)c(Cl)cc1Cl
x,5.5,4.0,-0.7,-1.7,-0.3,0.658,CCOCCCNC(=O)C(NC(=O)C1CCC(=O)N1)c1ccc(C)cc1 (stereo unspecified)
i,0.2,-9.9,3.8,0.4,-3.7,0.625,O=C(O)CN1C(=O)C(=O)N(Cc2cccc(F)c2)C1=O
x,-0.6,-1.0,0.1,26.7,4.5,0.632,O=[N+]([O-])c1cc(C(F)(F)F)ccc1NCCc1c[nH]c2ccc(O)cc12
x,-2.6,4.2,2.8,-34.7,x,x,C(=N\Nc1ccccc1)/c1ccc(N2CCOCC2)cc1
i,-6.9,-13.4,-1.6,3.9,0.5,0.692,Cc1ccccc1-n1nc(CSc2nc3ccccc3[nH]2)c(-c2ccccc2)c1N
x,1.6,7.2,-4.5,0.3,-0.3,0.75,Cc1cccc(Cn2c(C(C)(C)C)cc3cccnc32)c1
i,-2.3,-1.0,-1.8,57.0,x,x,Nc1nnnn1/N=C/c1cc(Br)ccc1O
i,-0.2,5.2,3.1,x,2.0,0.688,CCOc1cccc(CNCCO)c1OCc1ccc(Cl)cc1
i,-0.1,-2.4,3.2,1.0,4.1,0.704,NC(=O)[C@@H]1CCCN1C(=O)c1ccc2nc(Cc3cccc(Cl)c3)oc2c1
i,4.4,-6.3,-1.2,37.6,9.1,0.64,CCCCOc1ccc(C2C(C(=O)c3cccs3)=C(O)C(=O)N2CCN2CCOCC2)cc1 (stereo unspecified)
i,3.7,-9.8,-0.4,-15.3,x,x,Cn1c(SCC2CCCO2)nnc1-c1ccc([N+](=O)[O-])cc1 (stereo unspecified)
i,x,6.2,-4.8,x,x,x,C(=NN=C1c2ccccc2-c2ccccc21)c1c[nH]c2ccccc12
i,x,3.1,-28.1,x,2.2,0.712,Cc1ccc(NC(=O)c2noc3c2CCC3)cc1C
i,-1.9,-3.6,5.7,-40.1,x,x,Cc1cc(/C=N/n2cnnc2)c(C)n1-c1ccc2ncccc2c1
i,5.7,-5.2,0.5,-2.9,5.1,0.722,COC(=O)C1=C(C)NC(=O)/C1=C\c1cc(C)n(-c2ccccc2F)c1C
i,1.8,-6.9,0.3,-2.0,1.3,0.701,CCOc1cc(S(=O)(=O)N(CC)CC)ccc1Cl
i,0.0,-2.3,1.4,-0.8,2.0,0.647,COC(CNC(=O)C(=O)NCC1CCCN1S(=O)(=O)c1cccs1)OC (stereo unspecified)
x,1.8,-1.9,1.2,-13.3,3.4,0.712,CC(NC(=O)c1ccccc1Br)c1ccc2c(c1)CCCC2 (stereo unspecified)
i,-0.4,5.6,-2.8,x,-1.2,0.681,O=C1NC(=O)N(c2ccccc2)C1=O
i,50.8*,-4.7,1.4,-0.9,3.9,0.728,CC1(C)Cc2c(cnn2-c2ccc(F)cc2)C(NC(=O)Cn2cncn2)C1 (stereo unspecified)
i,-2.5,-5.5,1.2,-2.7,-19.8,0.752,c1cncc(-c2noc(-c3cccc4ccccc34)n2)c1
i,1.3,-4.5,-1.8,-3.8,2.7,0.676,COc1ccc(C2OC(=O)C(C)(C)C(=O)C2(C)C)cc1OC (stereo unspecified)
i,2.8,-6.3,0.6,0.0,2.3,0.719,Cc1cc(C)nc(N2CCCC(C(=O)NCCc3cccc(F)c3)C2)n1 (stereo unspecified)
i,6.8,2.2,0.7,-4.7,0.5,0.683,Nn1cnc2scc(-c3cccs3)c2c1=O
i,1.8,-0.8,3.3,1.8,-0.9,0.666,COc1ccc(CNC(=O)OCCN2CCN(Cc3ccccc3)CCC2=O)cc1
i,0.7,0.5,3.5,-4.7,0.7,0.678,O=C(Cn1c(NCCO)nc2ccccc21)c1ccc([N+](=O)[O-])cc1
i,-0.2,-7.3,3.8,-5.7,-0.1,0.641,CC1CCCCC12NC(=O)N(CC(=O)c1ccc3c(c1)OCO3)C2=O (stereo unspecified)
i,-3.6,2.0,-3.9,-15.8,1.7,0.688,COC(=O)c1ccccc1C(=O)N1CCC(CCC(=O)NC2CC2)CC1
i,-0.9,x,x,-0.2,3.4,0.62,CCOC(=O)C1CCCN(CC(=O)c2c[nH]c3ccc(C)cc23)C1 (stereo unspecified)
x,1.9,4.0,-2.9,-2.2,-1.7,0.726,COc1ccc(C(=O)NCCc2nnc(SCC(=O)Nc3ccccc3C(C)C)n2C)cc1
i,-1.6,11.6,-2.6,-1.7,0.3,0.671,COC(=O)CCc1sc(Nc2ccc(Br)cc2)nc1-c1ccc(OC)cc1
x,-0.2,-4.6,1.3,x,1.9,0.704,Cc1ccc(NCc2nnc(SCC(=O)Nc3ccccc3)n2CC2CCCO2)c(C)c1 (stereo unspecified)
x,-3.4,2.6,3.5,11.5,1.5,0.713,CC(=O)c1ccc(NC(=O)C(C)OC(=O)c2ccc(NS(=O)(=O)c3ccc(F)c(F)c3)cc2)cc1 (stereo unspecified)
i,2.9,5.0,-0.9,-21.2,5.9,0.647,O=C(Nn1c(-c2ccncc2)nc2ccccc2c1=O)c1ccccc1Br
x,23.4,4.0,-4.2,x,2.6,0.738,COC(=O)c1cc(C#N)c(Oc2ccccc2)nc1C
i,2.8,0.8,3.5,-2.0,x,x,C/C(CCc1ccccc1)=N/NC(=O)C(=O)NC(C)c1ccccc1 (stereo unspecified)
i,-3.3,-2.4,-1.3,-10.7,1.1,0.7,Cc1cc(NC(=O)CSc2nnc(-c3ccc([N+](=O)[O-])cc3)o2)no1
i,x,10.2,2.0,x,5.9,0.671,Nc1o[nH]c(=O)c1C1CCCCC1
i,-6.0,2.5,-0.6,-3.1,-5.0,0.651,Nc1nc2ccccc2n1C(=O)c1ccc(F)cc1
x,3.3,-3.0,0.2,-10.9,0.1,0.694,Cc1ccnc2nc(C(=O)NCCc3ccc(F)cc3)nn12
x,3.1,2.1,1.3,-7.5,x,x,COC(=O)c1ccc(Nc2nnc(-c3ccc(C)c(S(=O)(=O)NCC4CCCO4)c3)c3ccccc23)cc1 (stereo unspecified)
x,0.8,3.9,-2.5,x,2.1,0.734,CCCCCCCCC(=O)Nc1cc(C)ccc1OC
i,1.4,-9.2,-2.6,1.5,-0.4,0.696,c1ccc(CSc2ccc3nnc(-c4ccccn4)n3n2)cc1
x,1.1,-0.8,-4.6,-47.5,1.3,0.61,O=C(Nc1ccc(N2CCOCC2)cc1)c1ccc([N+](=O)[O-])cc1
x,10.9,-10.6,2.5,-22.1,2.4,0.7,CCOC(=O)C1(CC2CCCCO2)CCN(C(=O)Nc2ccccc2)CC1 (stereo unspecified)
i,-3.5,19.5,-2.6,-3.2,-0.6,0.704,C=CCNC(=O)C(=O)NN=C1CCN(C)CC1
x,-1.0,x,x,-2.2,-14.7,0.722,Cc1ccc(S(=O)(=O)/C(C#N)=C/c2c(Oc3ccc(Cl)cc3)nc3c(C)cccn3c2=O)cc1

Fetched one by one from the entries so far:
FGF22 binding,LANA-H2A inh,Beta2AR agonist,HNF4A DNA FP,ALR H2O2 inh,UCH37 DUB inh,E coli growth,Compound
i,2.8,-6.3,0.6,0.0,2.3,0.719,Cc1cc(C)nc(N2CCCC(C(=O)NCCc3cccc(F)c3)C2)n1 (stereo unspecified)
x,3.1,2.1,1.3,-7.5,x,x,COC(=O)c1ccc(Nc2nnc(-c3ccc(C)c(S(=O)(=O)NCC4CCCO4)c3)c3ccccc23)cc1 (stereo unspecified)

(list continues)
FGF22 binding,LANA-H2A inh,Beta2AR agonist,HNF4A DNA FP,ALR H2O2 inh,UCH37 DUB inh,E coli growth,Compound
i,5.2,1.5,1.1,-2.9,1.7,0.649,Cc1cn(C2OC[C@@H](O)[C@@H]2CO)c(=O)[nH]c1=O (stereo partly specified)
x,-1.9,-1.9,0.8,2.8,4.8,0.719,CCOCCCNS(=O)(=O)c1ccc2c(c1)CCN2C(C)=O
+,0.2,11.9,0.1,-0.2,2.1,0.701,O=C(CN1C(=O)NC2(CCOc3ccccc32)C1=O)Nc1ccc(Br)cc1F (stereo unspecified)
i,-7.2,2.1,-2.6,-3.3,1.7,0.668,CCN(CC)CCN(C(=O)c1ccc2ccccc2c1)c1nc2ccc(OC)cc2s1
i,2.6,-5.1,3.5,-18.5,4.0,0.633,COc1ccc(C)cc1S(=O)(=O)N1CCN(C(=O)c2ncoc2-c2ccc(C)cc2)CC1
x,-1.1,7.6,-1.7,x,2.3,0.697,Cc1ccc2oc(-c3ccco3)nc2c1
x,5.7,1.9,3.0,-3.3,2.6,0.683,CCOCCCNC(=O)CN1C(=O)COc2ccc(S(=O)(=O)N3CCC(C)CC3)cc21
i,-7.0,0.0,3.4,-2.9,1.0,0.716,O=C(COc1ccccc1[N+](=O)[O-])N(Cc1ccco1)C1CCS(=O)(=O)C1 (stereo unspecified)
i,4.2,-5.4,-1.1,32.9,1.8,0.679,Cc1ccc(NC(=O)CCS(=O)(=O)c2ccccc2)cc1S(=O)(=O)N1CCOCC1
i,-1.8,-2.7,2.4,29.3,1.8,0.72,COc1ccccc1N1CCN(C(=O)CCCC2=NS(=O)(=O)c3ccccc3N2)CC1
i,-2.5,7.8,-1.2,1.4,1.4,0.629,O=C(NC1CCSC1)c1cccc(Cl)c1 (stereo unspecified)
i,-2.6,-2.4,-3.6,-7.3,5.7,0.695,Brc1ccccc1OCCN1CCCC1
x,0.7,-7.7,1.0,-2.3,3.7,0.668,COc1cc(OC)c(OC)cc1CN1CCN(c2ccccc2OC)CC1
i,-3.4,-4.0,1.8,44.1,3.1,0.739,Cc1ccc(S(=O)(=O)NNC(=O)C2CC=CCC2C(=O)O)cc1 (stereo unspecified)
x,-2.8,8.1,10.6,97.5*,2.6,x,O=[N+]([O-])c1ccc(/C=C2\CCC(C3=CCCC3)=C2N2CCOCC2)cc1
i,2.6,-0.5,-3.9,x,0.4,0.655,CS(=O)(=O)N(CC(=O)Nc1ccccc1F)C1CCCCC1
x,-1.7,3.4,1.7,-1.0,5.2,0.678,CCOC(=O)c1ccc(NC(=S)N(CCN(C)C)C(C)c2ccncc2)cc1 (stereo unspecified)
i,-0.6,6.5,2.1,-11.2,0.3,0.671,O=C(CCCn1c(=O)c2ccccc2n(CC(=O)N2CCN(c3ccccc3)CC2)c1=O)NCc1ccco1
x,2.0,-3.4,-2.2,-3.4,0.6,0.703,COC(=O)c1ccc(N2C(=O)CC(N3CCN(C(=O)c4ccco4)CC3)C2=O)cc1 (stereo unspecified)
